Source: PubChem BioAssay
UUG fidelity = modulators of yeast start codon fidelity, primary screen, whole organism, S. cerevisiae, single point, plate reader; S. cerevisiae UUG-firefly luciferase reporter, luminescence/redox ratio; activity score, % at 18.7 µM; hit rate 0.13% among 350,000; AID 602363, 2012;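 active = replicate mean at a twofold rise or more, about +100% in these data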;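 also: firefly luciferase made from a UUG start codon reports start codon fidelity; reporter light over untreated wells divided by growth signal over untreated wells; some hits fall short of that in this replicate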
HIV Env fusion = inhibitors of HIV-1 Env-driven cell-cell fusion, primary screen, HeLa-JRFL effector, CEM21 target cells, luciferase. AID 651610, 2012. hit rate 1.1% among 360,000. inhibition, % at 12.3 µM;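 active = mean replicate inhibition score of at least 50 and every replicate individually at or above 50; inconclusive = only one of the two criteria met; inactive = mean below 50 and not all replicates reaching 50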;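 also: 0% = plate neutral controls and 100% = maraviroc near 300 nM; one replicate is shown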
eIF4H FP inh = human eIF4H binding inhibitors, primary screen, translation initiation inhibitor project, biochemical, uHTS, fluorescence polarization | Eukaryotic translation initiation factor 4H (Homo sapiens), Q15056 | eIF4H fluorescence polarization binding assay | hit rate 0.94% among 290,000 | inhibition, % at 35 µM;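 active = 50% or more with normal probe brightness, or confirmed in later tests; inconclusive = above 50% with abnormal brightness, or retests that disagree; inactive = below 50% or failed in later tests; about a fifth of its hits are not listed in these tables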;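 also: calls also rest on retests at 20 µM and on dose response follow-up; 0% = protein and probe with vehicle and 100% = probe without protein; strong numbers were not always called active; many hits fall short of the cut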
PABP polyA inh = PABP poly(A) RNA binding inhibitors, primary screen, biochemical, fluorescence polarization, uHTS; Polyadenylate-binding protein 1 (Homo sapiens), P11940; inhibition, % at 35 µM; hit rate 1% among 290,000; AID 2014, 2009;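 active = 50% or more with normal probe brightness, or confirmed in later tests; inconclusive = above 50% with abnormal brightness, or retests that disagree; inactive = below 50% or failed in later tests; about a fifth of its hits are not listed in these tables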;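 also: calls also rest on retests at 20 µM and on dose response follow-up; controls were probe without protein and protein plus probe with vehicle; some compounds called inactive have numbers as strong as hits; many hits fall short of the cut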
Target sequence (P11940 whole entry, looked up): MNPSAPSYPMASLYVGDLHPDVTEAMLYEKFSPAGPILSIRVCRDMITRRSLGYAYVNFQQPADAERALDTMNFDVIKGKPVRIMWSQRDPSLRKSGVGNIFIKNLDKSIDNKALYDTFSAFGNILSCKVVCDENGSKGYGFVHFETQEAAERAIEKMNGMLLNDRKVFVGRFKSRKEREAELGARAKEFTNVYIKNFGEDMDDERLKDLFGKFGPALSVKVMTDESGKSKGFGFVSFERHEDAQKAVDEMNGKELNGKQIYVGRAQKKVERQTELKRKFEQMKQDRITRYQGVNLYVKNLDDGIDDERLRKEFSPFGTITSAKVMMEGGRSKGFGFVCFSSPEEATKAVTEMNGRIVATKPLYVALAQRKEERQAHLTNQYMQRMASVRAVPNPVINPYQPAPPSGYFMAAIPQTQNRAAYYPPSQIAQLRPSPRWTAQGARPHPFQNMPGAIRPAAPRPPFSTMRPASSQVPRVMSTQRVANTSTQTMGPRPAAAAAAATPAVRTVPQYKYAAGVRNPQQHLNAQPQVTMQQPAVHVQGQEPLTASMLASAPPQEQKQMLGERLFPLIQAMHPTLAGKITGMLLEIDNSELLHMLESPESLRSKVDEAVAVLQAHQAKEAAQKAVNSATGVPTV
Rce1 inhib = yeast Rce1p protease inhibitors, primary screen, biochemical, fluorescence, cell-free homogeneous. CAAX prenyl protease 2 (Saccharomyces cerevisiae (strain ATCC 204508 / S288c)), Q03530. yeast membranes, quenched prenylated peptide cleavage fluorescence. calls only. hit rate 0.27% among 290,000;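 active = fall in fluorescence gain of 50% or more versus controls, with final raw signal at or below 3038400; inconclusive = same 50% fall but final raw signal above 3038400; inactive = fall in fluorescence gain under 50%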;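 also: plate controls were neutral control wells for no effect and wells lacking membranes for full effect; tested at 10 µM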
MT1-MMP act inh = blockers of MT1-MMP proenzyme processing, primary screen, HT1080 RFP-PRO-GFP cells, GFP/RFP fluorescence; GFP/RFP ratio change, % at 20 µM; Matrix metalloproteinase-14 (Homo sapiens), P50281; AID 651647, 2012; hit rate 0.061% among 360,000; GFP/RFP ratio fluorescence, overnight; percent of plate control window, DMSO zero;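 active = GFP/RFP ratio change of at least 30% with cell ATP level not reduced by more than half and red fluorescence within 50% of control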; also: strong numbers were not always called active
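Read-out: GFP/RFP fluorescence ratio; Test system: RFP-PRO-GFP reporter HT1080 cells; Compound dosing: single-point 20 µM compound, 1% DMSO; Times: overnight compound exposure at 37 °C.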
CSC inhib = cancer stem cell viability inhibitors, primary screen, luminescence | cancer stem cell-like cells viability | inhibition, % at 7.5 µM | hit rate 1.1% among 300,000 | AID 2717, 2010;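 active = mean at 75% or more and at least half the replicates too; inconclusive = mean and replicates disagree; tested in HMLE shEcad cells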;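 also: 0% = median of negative and 100% = median of positive control wells; the first replicate is given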
eIF4H FP inh retest = also measured in eIF4H FP inh; calls as there; inhibition, %; compound at 20 µM; confirmation average;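 mean of two retest wells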
PABP polyA inh retest = further read-out of PABP polyA inh, marked with its call; inhibition, %; compound at 20 µM; confirmation repeats;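 mean of two retest wells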
MT1-MMP act inh RFP = also measured in MT1-MMP act inh; calls as there; RFP signal change, %; measured here: RFP expression control read;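 0 = vehicle wells; hits needed this value within 50% of zero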
Active calls of the source: *; i = inactive; ? = inconclusive; . = not tested or not shown. These rows are one share of the data. The share of hits here may be higher or lower than overall.

SMILES	UUG fidelity	HIV Env fusion	eIF4H FP inh	PABP polyA inh	Rce1 inhib	MT1-MMP act inh	MT1-MMP act inh RFP	CSC inhib	others
CCOC(=O)C1=C(COC(=O)C2CC(=O)N(c3ccc(CC)cc3)C2)NC(=O)NC1C (stereo not drawn)	5	2	.	.	.	2	5	.
CN1CCN(C(=O)C2=C[C@H](c3csc4ccccc34)C[C@H](OCCCCO)O2)CC1	-5	7	3	11	i	-3	0	14
CN1CCC(C)(C(=O)Nc2cccc(Oc3ccccc3)c2)C1 (stereo not drawn)	-6	0	.	.	.	0	2	.
O=C(COc1ccccc1Cl)N1CCN(c2ccccn2)CC1	.	-30	.	.	i	6	1	3
C(=N\NC1=Nc2cccc3cccc1c23)/c1ccccn1	.	19	0	5	i	-16	-15	.
CCc1nc2ccc(C(=O)N3CCN(c4ccc(Cl)cc4)CC3)cc2nc1CC	12	23	-8	-4	i	5	-6	30
Cn1cc(C(=O)NCc2ccc(F)cc2)c(=O)c2cc(S(=O)(=O)N3CCCCC3)ccc21	.	.	9	3	i	4	-4	-1
O=C(CN1C(=O)S/C(=C\c2ccccc2F)C1=O)NCCCn1ccnc1	-18	-15	-7	5	i	1	1	27
NC(=S)NNc1ccnc2cc(Cl)ccc12	.	7	2	8	i	-1	0	-14
Cc1cccc(N2CCN(Cc3ccc(Br)o3)CC2)c1C	0	15	6	16	i	-2	-4	-2
Clc1ccccc1OCc1nc(-c2ccncc2)no1	-17	-164	-7	-5	.	2	1	41
CC(=O)CSc1nnc(-c2ccc(S(=O)(=O)N3CCCC3)cc2)n1C	-11	-2	4	-2	i	2	4	-6
COc1cccc(NC(=O)Cc2c(O)c3ccccc3[nH]c2=O)c1	-24	.	-5	13	i	0	2	.
COc1ccc(-n2c(C)nnc2SCC(=O)Nc2ccccc2F)cc1	-16	3	-1	12	i	-1	2	-1
CN(C(=O)CSc1nc(N)c2c3c(sc2n1)CSC(C)(C)C3)c1ccccc1	3	8	-2	14	i	1	-6	-9
C=C(C)Cn1c2ccc(NC(=O)NCC)cc2c(=O)n1C	-8	-52	.	.	.	-2	5	.
Cc1ccc(C)c(Cn2c(O)c(N=NC(=S)Nc3ccccc3F)c3ccccc32)c1	.	20	0	-6	i	2	-1	3
COc1ccc(N=C2NC(=O)C(CC(=O)NCCc3ccc(OC)c(OC)c3)S2)cc1 (stereo not drawn)	-24	-1	-10	0	i	9	3	-3
Cc1cc(C)n(CCCN2CCC(C(=O)Nc3cccc(-c4cccc(F)c4)c3)CC2)n1	-10	22	-14	-13	i	0	-2	1
CN(CC(=O)Nc1ccc(Cl)cc1)C(=O)c1cc(-c2cccs2)nn1-c1ccccc1	-3	-32	.	.	i	3	1	33
O=C(Cn1c(=S)nc2ccccn21)N1CCc2ccccc2C1	-15	-53	-2	-4	i	5	9	-1
Cc1ccc(-c2ccc(C3=CC(=O)CC(C)(C)C3=O)cc2)cc1	1	-53	.	.	.	3	-1	.
CCOC(=O)Cc1nc2nc(C)cc(C)n2n1	-18	15	6	3	i	0	2	-14
COC(=O)CNc1nc(C2CC2)nc2c1nnn2Cc1ccccc1Cl	-4	14	-4	-2	i	-1	-4	-9
Cc1ccccc1N1CCN(C2CCCN(C(=O)c3noc4c3CCCC4)C2)CC1 (stereo not drawn)	0	.	6	-5	i	-4	-5	9
O=C(Cc1c[nH]c2ccccc12)NCc1ccc(Cl)cc1Cl	-7	14	4	10	i	-1	1	-10
COc1ccc2c(ccc[n+]2CC(=O)c2ccc(C)cc2)c1	3	8	1	-2	i	-6	0	-1
COc1ccccc1C(=O)C1CCCN(Cc2ccc3c(c2)OCCO3)C1 (stereo not drawn)	10	-2	-11	-2	i	-3	0	.
O=C(CNC(=O)c1ccco1)OCN1C(=O)c2ccccc2C1=O	-4	.	-8	-4	i	-7	-1	-4
Cc1ccc(CCNC(=O)C2CCCN(S(=O)(=O)c3c(C)noc3C)C2)cc1 (stereo not drawn)	-18	-7	-2	-3	.	15	7	.
CSc1ccccc1NC(=O)c1ccoc1C	-11	9	-5	2	i	-4	4	-11
CCCc1cc(=O)n2[nH]c(C)cc2n1	-5	-9	1	3	i	1	2	-17
CC(=O)N[C@H]1C(O)O[C@H](CO)[C@@H](O)[C@@H]1O (stereo partly drawn)	-5	-17	.	.	i	3	5	-1
CC(NC(=O)c1cc(COc2cccc(C(F)(F)F)c2)on1)c1nccs1 (stereo not drawn)	-6	.	-5	-2	i	-1	-3	9
O=C(c1cc(N2C(=O)C3C4CCC(C4)C3C2=O)ccc1Cl)N1CCN(c2ccc(F)cc2)CC1 (stereo not drawn)	.	35	-2	63	i	-2	-16	9	eIF4H FP inh retest=-2;PABP polyA inh retest=4
O=C(NC1CCCCC1)c1ccc(S(=O)(=O)c2ccccc2)cc1	.	19	-1	1	i	1	-1	-4
CC(C)[C@H]1COCCS(=O)(=O)N1Cc1ccccc1-c1ccc(F)cc1	4	13	.	.	.	-4	-3	.
COCCNC(=O)Cn1cc(C(=O)c2ccco2)c2ccccc21	-18	-4	5	-1	i	1	3	-5
COC(=O)c1cc(S(=O)(=O)NCC2CCN(Cc3ccc(Cl)cc3)CC2)cn1C	-17	-7	-4	7	i	2	0	10
COc1cccc2cc(C(=O)OC3CCN(C)CC3)c(=O)oc12	-9	-2	0	-18	i	3	3	41
CC(=O)N/N=C(/c1ccccc1)C(O)c1ccccc1 (stereo not drawn)	-13	-6	-5	5	i	2	-1	-10
Cc1ccc(NC(=S)N2CCC(c3ccc(C)cc3)C2)cc1 (stereo not drawn)	.	-17	-7	-8	i	7	4	-2
COCC(=O)N(C)C[C@H]1N[C@@](Cc2ccccc2)(C(=O)OC)[C@H]2C(=O)N(C)C(=O)[C@@H]12	-15	13	.	.	.	2	4	5
CCn1c(=O)cc(OCC(=O)N2CCCCCC2)c2ccccc21	-8	5	-2	-17	i	6	3	11
O=C(Nc1cccc(C(=O)N2CCCCC2)c1)C1CCC1	-3	-4	.	.	.	5	3	.
CCOc1cccc(C2/C(=C(/O)c3ccc4c(c3)CC(C)O4)C(=O)C(=O)N2CCN2CCOCC2)c1 (stereo not drawn)	-12	-11	-2	-6	i	-4	2	-9
COC(=O)[C@@H]1CCCN1Cc1c(C(=O)N2CCOCC2)nc2c(C)cccn12	.	7	3	0	i	-2	2	13
CC(C)(C)C(=O)C(Cc1ccccc1Cl)n1cncn1 (stereo not drawn)	-13	-18	2	12	i	-4	1	.
COC(=O)c1ccc(-n2c(C)cc(/C=N/Nc3nc(C)cc(=O)[nH]3)c2C)cc1	.	10	-1	-8	i	0	-3	-8
NC(=O)c1ccc(-n2nnnc2SCc2ccc(F)cc2)cc1	-9	.	-1	6	i	2	-2	3
COc1cc2c(cc1NC(=O)Nc1cccc(C)c1)oc1ccccc12	3	-20	1	-4	i	0	-5	20
COc1ccc(/C=C\C(=O)NCc2ccc3c(c2)cc(C)n3C)cc1OC	-21	.	33	2	i	7	14	.
CCn1c(-c2ccc(C(C)(C)C)cc2)n[nH]c1=S	-8	.	-9	-6	i	3	-19	0
O=C(Oc1ccc(-c2nnco2)cc1)C1CCN(C(=O)c2ccc(F)cc2)CC1	-5	-4	-3	-8	i	-3	-2	-5
COC(=O)c1ccc(C)c(NC(=O)c2ccc(Cn3cc([N+](=O)[O-])cn3)o2)c1	-13	24	7	14	i	3	7	-4
CC(C)c1cc(C(=O)N/N=C/c2ccoc2)c(O)c(C(C)C)c1	-20	-15	-3	-6	i	-1	4	11
C/C(=N\Nc1ccc([N+](=O)[O-])cc1[N+](=O)[O-])c1cccnc1	.	-9	10	18	i	7	-1	-4
COc1cccc2cc(C(=O)NCCc3ccccc3)oc12	-16	7	7	-3	i	-5	-2	-4
O=C(CCCc1ccccc1)N1CCN(c2ccc([N+](=O)[O-])cc2)CC1	-17	.	0	0	i	1	-21	-2
CC1CCCCN1C(=O)c1cc2nc(-c3ccccc3)cc(-c3ccccc3)n2n1 (stereo not drawn)	-7	15	-7	-6	i	-11	-12	20
(continued)
SMILES	UUG fidelity	HIV Env fusion	eIF4H FP inh	PABP polyA inh	Rce1 inhib	MT1-MMP act inh	MT1-MMP act inh RFP	CSC inhib	others
COc1cc(-c2cc(C(=O)Nc3ccccc3N3CCOCC3)c3ccccc3n2)cc(OC)c1OC	.	34	6	-10	i	-8	-4	-2
COC(=O)c1ccccc1NC(=O)NC1CC1	.	-14	-1	-4	i	-3	-1	.
CC(C)C[C@H](NC(=O)OC(C)(C)C)C(=O)N1CCC(C(=O)O)CC1	2	.	-16	3	i	-1	3	2
CN(C)C=NC(=O)c1cccn1-c1ncc(C(F)(F)F)cc1Cl	.	8	7	?	i	3	6	-7
CCOC(=O)c1c(NC(=O)C2C3C=CC(C3)C2C(=O)O)sc2c1CCCC2 (stereo not drawn)	.	16	-8	10	i	-3	1	.
Cc1nc(N2CCC(C)CC2)c2c(C)c(C(=O)O)sc2n1	-9	i	-1	14	i	-4	-3	9
O=[N+]([O-])c1cccnc1Sc1ccc(F)cc1	-20	13	.	.	i	1	0	-10
Cc1cccc(Nc2ncnc3onc(-c4ccc(F)cc4)c23)c1C	60	-2	-5	0	i	-3	-2	10
O=c1[nH]c(CSc2ccccn2)nc2ccccc12	.	-29	1	0	.	0	2	2

10 compounds out of the list, arranged by SMILES length, smallest number first:
SMILES	UUG fidelity	HIV Env fusion	eIF4H FP inh	PABP polyA inh	Rce1 inhib	MT1-MMP act inh	MT1-MMP act inh RFP	CSC inhib	others
COC(=O)c1ccccc1NC(=O)NC1CC1	.	-14	-1	-4	i	-3	-1	.
O=c1[nH]c(CSc2ccccn2)nc2ccccc12	.	-29	1	0	.	0	2	2
O=[N+]([O-])c1cccnc1Sc1ccc(F)cc1	-20	13	.	.	i	1	0	-10
COc1cccc2cc(C(=O)NCCc3ccccc3)oc12	-16	7	7	-3	i	-5	-2	-4
Cc1nc(N2CCC(C)CC2)c2c(C)c(C(=O)O)sc2n1	-9	i	-1	14	i	-4	-3	9
Cc1cccc(Nc2ncnc3onc(-c4ccc(F)cc4)c23)c1C	60	-2	-5	0	i	-3	-2	10
CN(C)C=NC(=O)c1cccn1-c1ncc(C(F)(F)F)cc1Cl	.	8	7	?	i	3	6	-7
O=C(CCCc1ccccc1)N1CCN(c2ccc([N+](=O)[O-])cc2)CC1	-17	.	0	0	i	1	-21	-2
CCOC(=O)c1c(NC(=O)C2C3C=CC(C3)C2C(=O)O)sc2c1CCCC2 (stereo not drawn)	.	16	-8	10	i	-3	1	.
COc1cc(-c2cc(C(=O)Nc3ccccc3N3CCOCC3)c3ccccc3n2)cc(OC)c1OC	.	34	6	-10	i	-8	-4	-2
